V. cholerae QS – Vibrio cholerae quorum sensing activators, luminescence (AID 686977) | V. cholerae quorum sensing reporter, luminescence, 6 h; higher luminescence means a stronger effect; most inactives read 0 | luminescence at 50 µM unless noted; hits with a dose series show EC50 in µM | 9,400 tested, under 10 active;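 active = light above mean plus 3 SD and confirmed in a dose series; inconclusive = above that limit without a clear retest; inactive = below it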;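 also: raw light counts without normalisation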
Starred values were filed as active, the others as inactive; ? = inconclusive; [ ] = another dose, or the depositor's remark. A portion of the library, so the mix of outcomes need not match the whole.

SMILES | V. cholerae QS
CCC(C)Sc1nc2c(cnn2-c2ccc(C)cc2)c(=O)[nH]1 (stereo not drawn) | 40
O=C(O)CCCC(=O)NS(=O)(=O)c1ccc(Cl)cc1 | 0
O=C(CSc1nnc(-c2ccco2)n1Cc1ccco1)NCc1cccs1 | 0
COc1ccc(-c2cc(C(F)(F)F)n3ncc(C(=O)NCC4CCCO4)c3n2)cc1 (stereo not drawn) | ?
CC1CN(Cc2nc3c(c(=O)[nH]c(=O)n3C)n2CC(N)=O)CC(C)O1 (stereo not drawn) | 0
CCO/C([O-])=N/c1c[n+](N2CCOCC2)no1 | 0[10 µg/mL]
O=C(Cn1nc(Cl)nc1Cl)c1cc2ccccc2oc1=O | 0
Cc1csc(NC(=O)CCSCCc2ccccn2)n1 | 0
Cc1sc2ncnc(N3CCCCC3C)c2c1C (stereo not drawn) | ?
CCOC(=O)c1ccc(N2C(=O)CC(N3CCCC(C)C3)C2=O)cc1 (stereo not drawn) | 40
Cc1ccc(NC(=O)Cn2c(=O)oc3cc(S(=O)(=O)N4CCC(C)CC4)ccc32)cc1C | 0
CC(CC(=O)NC1CCSC1=O)c1ccccc1 (stereo not drawn) | 40
Cc1cc(OCc2ccc(F)cc2)nc(-c2ccccc2O)n1 | 0
O=C(CSC1=Nc2ccccc2C2=NC(CC(=O)NCc3ccco3)C(=O)N12)NCc1ccco1 (stereo not drawn) | 0
O=C1CNCc2[nH]c3ccccc3c2N1c1ccccc1 | 0
CCCC(=O)n1nc(-c2ccco2)nc1SCc1ccccc1 | 40
Cc1cc(C(=O)C(=O)NC(C)C)c(C)n1-c1ccc([N+](=O)[O-])cc1 | ?
CS(=O)(=O)N1CCCC(C(=O)NCCCN2CCC(Cc3ccccc3)CC2)C1 (stereo not drawn) | 0
Oc1ccc(CN2CCCc3ccccc32)c2cccnc12 | 0
Cc1nc2ccccc2n1/C(=N/S(=O)(=O)c1ccc(Br)cc1)c1ccccc1 | 40
CC1Cc2nc(SCC(=O)NCc3ccco3)n(Cc3ccccc3)c(=O)c2S1 (stereo not drawn) | 0
O=C(OCN1C(=O)c2ccccc2C1=O)C1CCCCC1 | 0
Cc1cc(C)nc(NS(=O)(=O)c2ccc(N)cc2)n1 | 0[10 µg/mL]
Cc1ccccc1C(=O)Nc1ccc(N2CCOCC2)nc1 | 0
CCOC(=O)N1CCN(C(=O)Nc2ccc(Cl)cc2)CC1 | 40
Cn1c(=O)c2c(nc(N3CCOCC3)n2CCSc2ncccn2)n(C)c1=O | 0
CCN(CC)S(=O)(=O)c1ccc2nc(SC)sc2c1 | 40
CC(NC(=O)COc1ccccc1)C(=O)NC1=NCCS1 (stereo not drawn) | 0
CCCS(=O)(=O)N1CCN(S(=O)(=O)c2ccccc2)CC1 | 0
CCN(C(=O)COC(=O)c1ccc(OCc2c(C)noc2C)cc1)c1ccccc1 | 40
CCn1c(C)cc(/C=C2\NC(=O)N(Cc3ccc(Cl)cc3)C2=O)c1C | 0
COc1ccccc1NC(=O)N1CCCC1C(=O)NC1CCCCC1 (stereo not drawn) | 0
CC(C)OCCCNC(=O)CN1C(=O)CC(C)(C)S(=O)(=O)c2ccccc21 | 0
CCCCOC(=O)Nc1cccc(Cl)c1C | 0
N#Cc1nc(-c2ccc(F)cc2)oc1NCCN1CCOCC1 | 0
CC1CCN(c2c(NCC3CCC(C(=O)N4CCCCC4)CC3)c(=O)c2=O)CC1 (stereo not drawn) | 40

An excerpt of these results, in CSV form:
structure,V. cholerae QS
CC(C)OCCCNC(=O)CN1C(=O)CC(C)(C)S(=O)(=O)c2ccccc21,0
CCCCOC(=O)Nc1cccc(Cl)c1C,0
N#Cc1nc(-c2ccc(F)cc2)oc1NCCN1CCOCC1,0

Later entries
SMILES | V. cholerae QS
C[C@H]1CC[C@@H]2[C@@H](C)[C@H]3[C@H](C[C@H]4[C@@H]5CC=C6C[C@@H](O[C@@H]7O[C@H](CO)[C@H](O)[C@H](O[C@@H]8O[C@H](CO)[C@@H](O)[C@H](O)[C@H]8O)[C@H]7O[C@@H]7O[C@@H](C)[C@H](O)[C@@H](O)[C@H]7O)CC[C@]6(C)[C@H]5CC[C@]34C)N2C1 | 800[10 µg/mL]
CCc1ccccc1NC(=O)c1onc(C)c1Cl | 0
CCN(CC)C(=O)Cn1ncc2c1-c1ccccc1OC2 | 0
CC(C)CN(/C=N/c1sc2c(c1C#N)CCCCC2)CC(C)C | 0
CCC1(C)CC(=O)NC1=O (stereo not drawn) | 0[10 µg/mL]
CCN1CCN(CC(=O)Nc2ccc(C)cc2C)C(=O)C1=O | 0
CCn1cc(SCC(N)=O)c2ccccc21 | ?
O=C(NCCc1ccccc1)C1CCCN(S(=O)(=O)c2cnc[nH]2)C1 (stereo not drawn) | 80
Cc1ccc(-n2c(SCC(=O)Nc3ccc4c(c3)OCO4)nnc2-c2ccccn2)cc1 | 400
CCc1ccc(-n2c(CSc3nnnn3-c3ccccc3)nc3ccccc3c2=O)cc1 | 0
COc1ccccc1NS(=O)(=O)c1cccc2cccnc12 | 0
CCCN1C[C@H](CSC)C[C@@H]2c3cccc4[nH]cc(c34)C[C@H]21 | 0[10 µg/mL]
COc1cccc(/C(C#N)=C/c2c(-c3ccc(Cl)cc3)nc3c(C)cccn23)c1 | 0
O=c1c2ccccc2nnn1CSc1nnc2ccccn12 | 40
COc1cc(C2C(C#N)=C(N)Oc3n[nH]c(-c4ccncc4)c32)cc(OC)c1OC (stereo not drawn) | 0
COC(=O)[C@H](C)NC(=O)NC(C)CCc1ccccc1 (stereo partly drawn) | 40
CCOC(=O)N1CCC(c2cc(=O)n3[nH]cc(C(=O)OC)c3n2)CC1 | 40
CC(C)c1ccc(C2CC(=O)N3CN(C)CSC3=C2C#N)cc1 (stereo not drawn) | 0
CC/C(=N\NS(C)(=O)=O)c1ccccc1 | 0
CCn1c(C(=O)N2CCC(C(=O)N3CCN(c4ccccn4)CC3)CC2)cc2sccc21 | 0
O=C(NCc1ccccn1)c1cccs1 | 0
CCN(CC)S(=O)(=O)c1cccc(-c2nnc(SCc3nnc(-c4ccccc4)o3)n2C)c1 | ?
COCCCn1c(N)c(-c2nc3ccccc3n2C)c2nc3ccccc3nc21 | 0
CCCCn1c(N)c(Sc2ccccc2)c(=O)[nH]c1=O | 0

Structures listed so far containing a furan ring, fused or not (4):
SMILES | V. cholerae QS
O=C(CSc1nnc(-c2ccco2)n1Cc1ccco1)NCc1cccs1 | 0
O=C(CSC1=Nc2ccccc2C2=NC(CC(=O)NCc3ccco3)C(=O)N12)NCc1ccco1 (stereo not drawn) | 0
CCCC(=O)n1nc(-c2ccco2)nc1SCc1ccccc1 | 40
CC1Cc2nc(SCC(=O)NCc3ccco3)n(Cc3ccccc3)c(=O)c2S1 (stereo not drawn) | 0

Remaining list, next part.
SMILES | V. cholerae QS
O=C1CC2CS(=O)(=O)CC2N1C1CCCCC1 (stereo not drawn) | 0
Cc1ccc(NC(=O)/C(C#N)=C/c2ccc(C)s2)c(C)c1 | 0
CCCNC(=S)NC1CC2CCC(C1)N2Cc1ccccc1 (stereo not drawn) | 0
ONC(=Nc1ccccc1)c1ccccc1Cl | 0
CCCCN=CC1=C(O)C(C(=O)OC)C(C)(C)CC1=O (stereo not drawn) | 0
N#CC1=C2Nc3ccccc3N2C(=O)NC1(c1ccccc1)C(F)(F)F (stereo not drawn) | 0
Cc1noc(C(=O)NCc2ccc(F)cc2)c1Cl | 0
Cc1ccc(C(=O)Nc2sc3c(c2C(=O)NCc2ccco2)CCCC3)cc1 | 0
CCn1c(=O)cc(OCC(=O)Nc2ccccc2N2CCN(C)CC2)c2ccccc21 | 0
Cc1cc(NC(=O)C2CCCN(S(=O)(=O)c3c(C)noc3C)C2)no1 (stereo not drawn) | 40
Cc1ccc(Oc2ccc3c(c2)C(=O)N(c2ccc(S(=O)(=O)Nc4nccs4)cc2)C3=O)cc1 | 0
Cc1nn(-c2ccccc2)c2c1C(c1ccncc1)C(C#N)=C(N)O2 (stereo not drawn) | 0
OCCNc1nc2ccccc2n1-c1ncnc2sc3c(c12)CCC3 | 40
CCOC(=O)c1sc(=NC(=O)c2ccc(OC)c(OC)c2)n(C)c1C | 40
Cc1nnc(NC(=O)c2cccc(S(=O)(=O)N3CCOCC3)c2)s1 | 0
COC(=O)c1cccc(C(=O)Nc2ccc(C)cc2Br)n1 | 0
CCN(CC)S(=O)(=O)c1ccc(Oc2ccccc2)cc1 | 0
Cc1ccc(C)c(C(=O)CCC(=O)Nc2cccnc2)c1 | 0
Cc1ccc(-c2nc(CS(=O)CC(=O)NC3CCC(C)CC3)c(C)o2)cc1 (stereo not drawn) | 0
CC(=O)OCC1OC(n2ccc(=O)[nH]c2=O)C(O)C1O (stereo not drawn) | ?
O=C(Nc1nnc(-c2ccccc2Cl)o1)c1nc2ccccc2s1 | 0
[O-][n+]1onc2c3cc(-c4ccccc4)nnc3ccc21 | 0
Cc1ccccc1NC(=O)CSc1[nH]c(=O)cc(C)c1C#N | 40
CN(C)CCC=C1c2ccccc2CCc2ccccc21 | 0[10 µg/mL]
CSCC[C@H](NC(=O)C1CCN(S(=O)(=O)c2ccc(C)cc2)CC1)C(=O)NCc1ccco1 | 40
CC1CCN(C(=O)COC(=O)[C@H](C)NS(=O)(=O)/C=C/c2ccccc2)CC1 | 0
COc1c(O[C@@H]2O[C@H](CO)[C@@H](O)[C@H](O)[C@H]2O)cc2c(c1OC)-c1ccc(SC)c(=O)cc1C(NC(C)=O)CC2 (stereo partly drawn) | 40[10 µg/mL]
CCCCNC(=O)C1CCCN(S(=O)(=O)c2ccc(S(=O)(=O)NCC(C)C)cc2)C1 (stereo not drawn) | 0
COc1ccc(C(=O)C[n+]2ccc3c(c2)nc(-c2cc(OC)c(OC)cc2OC)n3C)cc1 | 40
CCCn1c(CCc2ccccc2)nnc1SCC(=O)N1CCCC1 | 960
COc1ccc(C(=O)Nc2cc3c(cc2C#N)OCO3)cc1S(=O)(=O)NCc1ccco1 | 0
O=C(CSc1nc2c(c(=O)[nH]1)CCCC2)Nc1ccc(Cl)cc1F | 0
CS(=O)(=O)c1ccc([C@@H](O)[C@@H](CF)NC(=O)C(Cl)Cl)cc1 | 0[10 µg/mL]
O=C(c1cccc(F)c1)N1CCN(Cc2c[nH]c3ccccc23)CC1 | 0
COc1ccccc1NC(=O)C1=C(C)Nc2nnnn2C1c1ccccn1 (stereo not drawn) | 0
COc1ccc(OC)c2sc(NC(=O)c3ccc(Br)s3)nc12 | 0
CSc1nnc(-c2ccccc2)n1C | 40
COc1cc2ccccc2cc1C(=O)Nc1ccc(S(=O)(=O)Nc2cc(C)on2)cc1 | 40
Cc1cc(C)n(-c2ccc(N3CCOCC3)nn2)n1 | 0
CCCNS(=O)(=O)c1ccc(OC)c(Cl)c1Cl | ?
Cc1nn(Cc2ccccc2)c(C)c1NC(=O)c1noc2c1CCc1ccccc1-2 | 0
O=C(c1ccc(S(=O)(=O)N2CCCCC2)cc1)N1CCN=C1SCc1cccnc1 | 0
COc1ccc(N2CCC(CNS(=O)(=O)c3cccc(C(F)(F)F)c3)C2)cc1 (stereo not drawn) | 0
C=CCN1C(=O)CN=C1Nc1cccc(C)c1 | 0
O=C(CSc1nc(-c2ccccc2)cs1)Nc1nccs1 | 40
CCCCCCn1c(=O)c(-c2ccccc2)c(O)c2ccccc21 | 40
COc1ccc(CNC(=O)COc2ccc([N+](=O)[O-])cc2)cc1 | 0
Cc1ccc(F)cc1NC(=O)c1c(-c2ccccc2)noc1C | 0
CCN1C[C@]2(COC)CC[C@H](O)[C@]34C1[C@](O)([C@@H](OC)[C@H]23)[C@@]1(O)C[C@H](OC)[C@H]2C[C@@H]4[C@@H]1[C@H]2OC | 0[10 µg/mL]
Cc1cc(=O)[nH]c(SCC(=O)N2CCc3ccccc3C2)n1 | 40
CCOC(=O)c1cnc2nc(C(F)(F)F)[nH]n2c1=O | 240
COC(=O)C1C(=O)c2c([nH]c(C(=O)OCCSC)c2C)CC1C (stereo not drawn) | 0
CCN(CC(=O)Nc1cccc(Br)c1)Cc1nc2ccccc2c(=O)[nH]1 | 0
Cc1cccc(OC(=O)CN2C(=O)C3C4CCC(C4)C3C2=O)c1C (stereo not drawn) | 40
Cc1cc(C(F)(F)F)nc(SCC(=O)c2cccc([N+](=O)[O-])c2)n1 | 40
Nc1nc(C(=O)N2CCOCC2)nn1S(=O)(=O)c1ccccc1 | 0
Cc1cnc(NC(=O)CSc2nnc(COc3c(C)cccc3C)o2)s1 | 0
Fc1ccc(C(OCCN2CCN(CCCc3ccccc3)CC2)c2ccc(F)cc2)cc1 | 0[10 µg/mL]
CCOC(=O)COc1ccc(S(=O)(=O)Nc2ccc(C)cc2)cc1 | ?
S=C(NC1CCCCC1)N1CCC(C2C=NC=N2)CC1 (stereo not drawn) | 0[10 µg/mL]

Another view of some results above:
SMILES,V. cholerae QS
COC(=O)C1C(=O)c2c([nH]c(C(=O)OCCSC)c2C)CC1C (stereo not drawn),0
CCN(CC(=O)Nc1cccc(Br)c1)Cc1nc2ccccc2c(=O)[nH]1,0

New compounds follow:
SMILES | V. cholerae QS
CC(C)N(C(=O)CSc1nnc(Cn2nnc3ccccc32)n1C)C(C)C | 40
Nn1c(SCC(=O)Nc2ccc3c(c2)OCCO3)nnc1C(F)(F)F | 0
CCCS(=O)(=O)N1CCn2c(nc3ccccc32)C1 | 880
COc1ccccc1-n1cnnc1SCC(=O)NCc1cccs1 | 40
O=C(NCc1ccncc1)Nc1cccc(Cl)c1 | 0
CSc1nc(C)cc(/C=C\c2ccccc2)c1C#N | 0
N#Cc1c(NC(NC(=O)c2ccco2)C(=O)c2ccccc2)sc2c1CCCC2 (stereo not drawn) | 40
CCOC(=O)CSc1nnc(-c2ccc(NS(=O)(=O)c3ccc(C)cc3)cc2)o1 | 40
O=C(NCCc1ccccn1)c1ccc(COc2ccccc2)o1 | 0
Cc1nn(C)c(C)c1S(=O)(=O)N1CCC(C(=O)NCC2COc3ccccc3O2)CC1 (stereo not drawn) | 0
COCCCNc1nc(-c2ccncc2)nc2ccccc12 | 0
COc1ccc2cc1Oc1ccc(cc1)C[C@H]1c3cc(c(OC)cc3CCN1C)Oc1c(OC)c(OC)cc3c1[C@H](C2)N(C)CC3 | 240[10 µg/mL]

Bioassay records deposited in PubChem by Southern Research Specialized Biocontainment Screening Center.
